Compound activity (PubChem)
CSC inhib: blocks cancer stem cells. inhibition, % at 7.5 µM. hit rate 1.1% among 300,000. cancer stem cell-like cells viability, luminescence;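 active means mean at 75% or more and at least half the replicates too; inconclusive means mean and replicates disagree; tested in HMLE shEcad cells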;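 further: 0% = median of negative and 100% = median of positive control wells; the first replicate is given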
PABP polyA inh: PABP-poly(A) binding inhibition. P11940. PABP-poly(A) RNA binding, fluorescence polarization. inhibition, % at 35 µM. hit rate 1% among 290,000;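 active means 50% or more with normal probe brightness, or confirmed in later tests; inconclusive means above 50% with abnormal brightness, or retests that disagree; inactive means below 50% or failed in later tests; about a fifth of its hits are not listed in these tables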;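 further: calls also rest on retests at 20 µM and on dose response follow-up; controls were probe without protein and protein plus probe with vehicle; some compounds called inactive have numbers as strong as hits; many hits fall short of the cut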
Rce1 inh: inhibitors of yeast Ras-converting enzyme | hit rate 0.27% among 290,000 | Q03530 | yeast membranes, quenched prenylated peptide cleavage fluorescence | calls only;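 active means fall in fluorescence gain of 50% or more versus controls, with final raw signal at or below 3038400; inconclusive means same 50% fall but final raw signal above 3038400; inactive means fall in fluorescence gain under 50%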;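 further: plate controls were neutral control wells for no effect and wells lacking membranes for full effect; tested at 10 µM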
Target sequence (Q03530 whole entry, looked up): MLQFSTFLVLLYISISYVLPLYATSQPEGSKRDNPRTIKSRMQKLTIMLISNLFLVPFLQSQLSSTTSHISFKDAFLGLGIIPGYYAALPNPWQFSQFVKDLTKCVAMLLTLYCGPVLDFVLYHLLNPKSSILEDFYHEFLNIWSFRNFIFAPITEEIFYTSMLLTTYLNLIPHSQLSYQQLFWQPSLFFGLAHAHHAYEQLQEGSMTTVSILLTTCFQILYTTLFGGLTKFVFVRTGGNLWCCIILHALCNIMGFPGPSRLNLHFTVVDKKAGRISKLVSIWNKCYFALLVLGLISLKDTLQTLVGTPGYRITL
HIV Env fusion: inhibitors of HIV Env-mediated cell fusion | AID 651610 | HeLa-JRFL Env/CEM21 cell fusion, luciferase | hit rate 1.1% among 360,000 | inhibition, % at 12.3 µM;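 active means mean replicate inhibition score of at least 50 and every replicate individually at or above 50; inconclusive means only one of the two criteria met; inactive means mean below 50 and not all replicates reaching 50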;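 further: 0% = plate neutral controls and 100% = maraviroc near 300 nM; one replicate is shown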
UUG fidelity: modulators of start codon recognition fidelity in yeast; S. cerevisiae UUG-firefly luciferase reporter, luminescence/redox ratio; hit rate 0.13% among 350,000; activity score, % at 18.7 µM; AID 602363;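 active means replicate mean at a twofold rise or more, about +100% in these data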;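 further: firefly luciferase made from a UUG start codon reports start codon fidelity; reporter light over untreated wells divided by growth signal over untreated wells; some hits fall short of that in this replicate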
MT1-MMP act inh: inhibitors of human MT1-MMP activation | P50281 | HT1080 RFP-PRO-GFP cells, GFP/RFP ratio fluorescence, overnight; percent of plate control window, DMSO zero | GFP/RFP ratio change, % at 20 µM | hit rate 0.061% among 360,000 | AID 651647;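 active means GFP/RFP ratio change of at least 30% with cell ATP level not reduced by more than half and red fluorescence within 50% of control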; further: strong numbers were not always called active
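Test system: HT1080 RFP-PRO-GFP cells; Benchmarks: DMSO and RFP-L50D-GFP cell wells; Timing: cells overnight before dosing, compound overnight, 37 °C, 5% CO2; Compound: one 20 µM compound dose with 1% DMSO; Read-out: GFP/RFP fluorescence ratio.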
eIF4H inh: inhibitors of RNA binding by human eIF4H; Q15056; eIF4H fluorescence polarization binding assay; inhibition, % at 35 µM; hit rate 0.94% among 290,000; AID 2012;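 active means 50% or more with normal probe brightness, or confirmed in later tests; inconclusive means above 50% with abnormal brightness, or retests that disagree; inactive means below 50% or failed in later tests; about a fifth of its hits are not listed in these tables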;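 further: calls also rest on retests at 20 µM and on dose response follow-up; 0% = protein and probe with vehicle and 100% = probe without protein; strong numbers were not always called active; many hits fall short of the cut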
eIF4H inh retest: recorded beside eIF4H inh, whose call it bears; inhibition, %; compound at 20 µM; confirmation average;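 mean of two retest wells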
PABP polyA inh retest: also measured in PABP polyA inh; calls as there; inhibition, %; compound at 20 µM; confirmation repeats;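 mean of two retest wells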
MT1-MMP act inh RFP: further read-out of MT1-MMP act inh, marked with its call; RFP signal change, %; measured here: RFP expression control read;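 0 = vehicle wells; hits needed this value within 50% of zero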
An asterisk follows results filed as active; i = inactive; ? = inconclusive; . = not tested or not shown.

Start of the listing, in advance (4 entries):
SMILES | CSC inhib | PABP polyA inh | Rce1 inh | HIV Env fusion | UUG fidelity | MT1-MMP act inh | MT1-MMP act inh RFP | eIF4H inh | others
CC(C)SCC(=O)Nc1ncc2c(n1)-c1ccccc1CC2 | . | 24 | i | -4 | . | -4 | 0 | 76* | eIF4H inh retest=64*;PABP polyA inh retest=21
Cc1ccc(OCCN(C)C(=O)C2CCC(=O)N(CC3CCCCC3)C2)cc1 (stereo not drawn) | 0 | 9 | i | 23 | 16 | 4 | -4 | 2
CCOc1ccc(-n2c(C)cc(/C=N\NC(=O)CC(=O)NC3CCCCC3)c2C)cc1 | -5 | -1 | i | 19 | . | -1 | -1 | -11
COc1ccc(NC(=O)c2ccc3c(=O)n(Cc4ccco4)c(=S)[nH]c3c2)c(OC)c1 | -7 | 14* | i | 11 | -15 | 11 | -5 | 70* | eIF4H inh retest=82*;PABP polyA inh retest=51*

Main list, previewed entries included:
SMILES | CSC inhib | PABP polyA inh | Rce1 inh | HIV Env fusion | UUG fidelity | MT1-MMP act inh | MT1-MMP act inh RFP | eIF4H inh | others
CC(C)SCC(=O)Nc1ncc2c(n1)-c1ccccc1CC2 | . | 24 | i | -4 | . | -4 | 0 | 76* | eIF4H inh retest=64*;PABP polyA inh retest=21
Cc1ccc(OCCN(C)C(=O)C2CCC(=O)N(CC3CCCCC3)C2)cc1 (stereo not drawn) | 0 | 9 | i | 23 | 16 | 4 | -4 | 2
CCOc1ccc(-n2c(C)cc(/C=N\NC(=O)CC(=O)NC3CCCCC3)c2C)cc1 | -5 | -1 | i | 19 | . | -1 | -1 | -11
COc1ccc(NC(=O)c2ccc3c(=O)n(Cc4ccco4)c(=S)[nH]c3c2)c(OC)c1 | -7 | 14* | i | 11 | -15 | 11 | -5 | 70* | eIF4H inh retest=82*;PABP polyA inh retest=51*
CC(=O)Nc1ccc(S(=O)(=O)N2CCN(S(=O)(=O)N3CCCCCC3)CC2)cc1 | . | -13 | i | . | -24 | 7 | 1 | 11
COc1ccc(C(=O)COC(=O)CCN=C2NS(=O)(=O)c3ccccc32)cc1OC | 7 | -2 | . | -18 | 0 | -3 | 2 | -1
COC(=O)C(CCCCNC(=O)OCc1ccccc1)NC(=O)CN (stereo not drawn) | -10 | 2 | i | . | 11 | 10 | 5 | 3
CCOC1=C2CN(S(=O)(=O)c3ccc(C)cc3)[C@H](c3cccc4ccccc34)C[C@H]2[C@H]2C(=O)N(c3ccccc3)C(=O)[C@H]2C1 | . | . | . | -27 | -22 | 1 | 7 | .
O=C(c1ccco1)N1CCN(C(=O)C2CCCN(S(=O)(=O)Cc3ccccc3)C2)CC1 (stereo not drawn) | -9 | 10 | i | -192 | -12 | -3 | 1 | -8
Cc1cc(/C=C2\NC(=S)NC2=O)c(C)n1-c1cccnc1 | 7 | 0 | i | 9 | -4 | 2 | 0 | -4
CC1CCCN(c2nc3c(c(=O)n(C)c(=O)n3C)n2CCSc2nc3ccccc3o2)C1 (stereo not drawn) | -22 | -3 | i | 31 | -11 | -1 | -6 | -1
CN(C(=O)C1CC1)C1CCS(=O)(=O)C1 (stereo not drawn) | -4 | . | i | . | 5 | 1 | 1 | .
Cc1nc2cc(NC(=O)C3COc4ccccc4O3)ccc2s1 (stereo not drawn) | -10 | 55* | i | -48 | -12 | 1 | -2 | -2
COc1ccc(C(=O)n2nc(-c3ccco3)nc2N)cc1OC | . | -8 | i | 2 | . | 6 | 1 | 7
CSc1ccccc1NC(=O)CN1CCCCC1C (stereo not drawn) | 6 | 0 | i | 14 | . | 1 | 3 | -2
CC1(C)OC(=O)C(=CSc2ccc(C(C)(C)C)cc2)C(=O)O1 | 4 | -4 | i | 0 | -9 | -2 | 3 | 2
COc1ccc(C2=NOC(Cn3nc(C(=O)NCc4ccco4)cc3-c3ccccc3)C2)cc1 (stereo not drawn) | -7 | . | i | 11 | -13 | 5 | -6 | .
O=C(Cn1cnc2c(nnn2Cc2ccc(F)cc2)c1=O)N1CCCCC1 | -6 | -1 | i | -33 | -12 | 9 | -1 | -2
CCCn1nc(C(=O)NNC(=O)c2cccc(C)c2)c2ccccc2c1=O | -18 | . | . | -11 | 11 | 0 | -1 | .
O=C(COCc1cc(-c2ccc3c(c2)OCO3)on1)N1CCN(c2cccc(Cl)c2)CC1 | 36 | 6 | i | -6 | -4 | -4 | 1 | -15
CCOCCCNC(=O)C(Cc1ccccc1)NS(=O)(=O)c1cccc2nsnc12 (stereo not drawn) | 8 | 60 | i | -16 | . | 0 | 2 | -1 | eIF4H inh retest=-7;PABP polyA inh retest=10
COc1ccc(C)cc1S(=O)(=O)n1cnc(C)c1 | -16 | 3 | i | -78 | -2 | 2 | 4 | 4
CCCc1c(C(=O)N/N=C/c2c[nH]c3ccccc23)nnn1-c1nonc1N | . | . | . | 8 | -2 | 1 | -4 | .
CCCCCOc1ccc(NC(=O)C(=O)NCC2CCCN2CC)cc1 (stereo not drawn) | -2 | -11 | i | -21 | -11 | 3 | -6 | -11
CCC1CCCCN1CCCNC(=O)CSc1nc2nc(C)c(Cc3ccccc3)c(C)n2n1 (stereo not drawn) | 4 | 3 | . | 4 | -8 | 2 | 4 | -5

Four compounds out of the list, ordered by number of heavy atoms, rising.
SMILES | CSC inhib | PABP polyA inh | Rce1 inh | HIV Env fusion | UUG fidelity | MT1-MMP act inh | MT1-MMP act inh RFP | eIF4H inh | others
COc1ccc(C(=O)n2nc(-c3ccco3)nc2N)cc1OC | . | -8 | i | 2 | . | 6 | 1 | 7
CCCn1nc(C(=O)NNC(=O)c2cccc(C)c2)c2ccccc2c1=O | -18 | . | . | -11 | 11 | 0 | -1 | .
CC(=O)Nc1ccc(S(=O)(=O)N2CCN(S(=O)(=O)N3CCCCCC3)CC2)cc1 | . | -13 | i | . | -24 | 7 | 1 | 11
CCC1CCCCN1CCCNC(=O)CSc1nc2nc(C)c(Cc3ccccc3)c(C)n2n1 (stereo not drawn) | 4 | 3 | . | 4 | -8 | 2 | 4 | -5

New compounds follow.
SMILES | CSC inhib | PABP polyA inh | Rce1 inh | HIV Env fusion | UUG fidelity | MT1-MMP act inh | MT1-MMP act inh RFP | eIF4H inh | others
O=C(CCCn1c(=S)[nH]c2cc3c(cc2c1=O)OCO3)N1CCN(c2ccccc2F)CC1 | 2 | -2 | i | 6 | -24 | 2 | 0 | 4
Cc1ccc(OCC(=O)Nc2ccc([N+](=O)[O-])cc2)cc1 | -2 | 5 | i | 9 | . | 3 | 5 | 0
COc1ccc(-c2csc(C(O)c3cccc(Cl)c3)n2)cn1 (stereo not drawn) | . | . | . | 14 | -19 | 5 | 2 | .
Cc1cc(-c2ccc(S(=O)(=O)NCc3ccc(Cl)cc3)cc2)on1 | . | . | . | 11 | -2 | 2 | 4 | .
CCC(CC)C(=O)NCCN1CCN(C(=O)C(CC)CC)CC1 | -9 | -4 | i | -31 | -13 | 2 | 1 | -11
Cc1onc(-c2ccccc2)c1C(=O)n1cccn1 | -14 | 2 | i | . | 3 | 2 | 6 | -3
CCN(CC)S(=O)(=O)c1cccc(NN=c2c(=O)c3ccccc3c2=O)c1 | -4 | 12 | i | 1 | -2 | 2 | 3 | -1
CC(C)COC(=O)Nc1nnc(SCCOc2ccccc2)s1 | . | 6 | i | . | -12 | 3 | 2 | -5
CC12CCC(=O)N1C(C(=O)N1CCN(S(=O)(=O)c3cccc(Cl)c3)CC1)CS2 (stereo not drawn) | -18 | . | i | 5 | . | 1 | 1 | .
COc1cc(SC)ccc1C(=O)NCCc1ccccc1 | -1 | 14 | i | -11 | . | 4 | 0 | 2
O=C(CSCc1c(F)cccc1Cl)NCCSCc1ccco1 | -3 | -10 | i | -3 | -4 | . | . | 4
COc1ccc(Cl)cc1N(CC(=O)N1CCCCCC1)S(C)(=O)=O | -7 | 12 | i | -13 | -10 | -1 | -1 | 4
Cc1c(NC(=O)Nc2ccccc2)cccc1[N+](=O)[O-] | 7 | 1 | i | . | -7 | 6 | 1 | 5
CSc1nsc(NC(=O)Nc2ccccc2)n1 | 15 | . | i | -33 | . | 7 | -8 | .
CCn1cc(/C=C(\NC(=O)c2cc(OC)c(OC)c(OC)c2)C(=O)N2CCOCC2)c2ccccc21 | . | . | . | -3 | 0 | -1 | 4 | .
COc1ccccc1/C=C(/C(=O)OCC(=O)Nc1ccccc1C(C)C)c1ccccc1 | -3 | -6 | i | 7 | . | -8 | -9 | -9
CCc1c(C)nc2ncnn2c1N1CCCC(C(=O)Nc2ccc(NC(C)=O)cc2)C1 (stereo not drawn) | -11 | 5 | i | . | -4 | 2 | 5 | 0
CCOC(=O)c1c(N)sc2c1CCN(CCc1ccccc1)C2 | -4 | 0 | i | -1 | -4 | -5 | -1 | 18
CC(C)N=C(Nc1ccccc1)c1cccnc1 | 0 | 5 | i | -4 | -1 | 0 | 7 | -1
Cc1ccc(CCNC(=O)C2CCC(=O)N2Cc2cccnc2)cc1 (stereo not drawn) | -6 | 2 | i | . | -19 | 0 | 9 | 0
c1ccc(-c2nnc(N3CCOCC3)c3ccccc23)cc1 | -8 | -8 | i | 19 | . | 0 | 0 | -12
COc1ccc(/C(O)=C2/C(=O)C(=O)N(CCCN(C)C)C2c2ccccc2)cc1OC (stereo not drawn) | 15 | 9 | i | -1 | 6 | 0 | -1 | -5
CCc1cccc(NC(=O)c2ccc3c(=O)n4c(nc3c2)CCCCC4)c1 | 4 | -18 | i | 13 | -12 | 0 | -18 | -3
COc1ccc(-n2c(C)nc3sc4c(c3c2=O)CCCC4)cc1 | 9 | 2 | i | . | . | . | . | -3
COc1cc(NC(=O)Cn2cnc3c(nc4n3CCCCC4)c2=O)cc(OC)c1OC | -4 | 7 | i | 4 | -12 | -5 | 0 | -2
The listing continues:
SMILES | CSC inhib | PABP polyA inh | Rce1 inh | HIV Env fusion | UUG fidelity | MT1-MMP act inh | MT1-MMP act inh RFP | eIF4H inh | others
O=C(/C=C/c1ccco1)N1CCN(c2ccc(F)cc2)CC1 | 0 | 4 | i | -5 | . | 5 | 2 | -3
Cc1ccc(F)cc1NC(=O)CCC(=O)c1cccs1 | -2 | -13 | . | -32 | -24 | -19 | -5 | -10
CCc1cc(C)cc(OCCNC(=O)c2ncn[nH]2)c1 | 9 | 8 | i | . | 4 | 8 | 0 | 2
N#Cc1cc2ccccc2nc1SCC(=O)Nc1ccc(S(=O)(=O)N2CCCC2)cc1 | 29 | ? | i | . | 1 | -86 | -10 | ?
Cc1cc(NC(=O)CSc2nnc(NCc3ccco3)s2)no1 | . | . | . | 20 | -17 | -3 | 1 | .
Cc1cccc(C(=O)N(Cc2nc3ccccc3c(=O)[nH]2)C2CCCCC2)c1 | -3 | -9 | i | 10 | . | 1 | 0 | -6
COc1ccc(Cl)cc1NC(=O)NCc1ccccn1 | -9 | -13 | i | -15 | -23 | -4 | 0 | -12
Cc1cccc(C)c1NC(=O)CN(C)C(=O)c1ccccc1Cc1ccccc1 | -9 | . | i | . | . | -3 | -3 | .
COc1ccccc1NC(=O)COc1ccc(/C=N/NC(=O)CSCc2ccc(Cl)cc2)cc1 | -12 | -6 | i | . | . | -1 | -18 | -4
CCOC(=O)C1(Cc2cccc(F)c2)CCN(Cc2cnn(CC)c2C)CC1 | 26 | 2 | i | -13 | . | 5 | 3 | -2

This is a subset; rates above refer to the full screens.
